PAD4 FP inh: blocks human protein arginine deiminase 4 | inhibition, % at 6.36 µM | recombinant PAD4, RCA probe fluorescence polarization | 330,000 tested, 0.41% active | Q9UM07;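 active = percent inhibition above a cutoff equal to the mean of all tested compounds plus 3 SD, cut at about 15% in these data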;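 note: 0% = PAD4 with RCA probe and DMSO and 100% = probe without PAD4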
PREPL inh: inhibits the human prolyl oligopeptidase-like enzyme | Q4J6C6 | inhibition, % at 5.96 µM | 320,000 tested, 0.68% active | recombinant PREPL, fluorescence polarization activity-based probe; in the data active = inhibition above about 43%;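 note: 0% = enzyme with DMSO and 100% = wells lacking enzyme; many of its hits are not listed in these tables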
Target sequence (Q4J6C6 whole entry, looked up): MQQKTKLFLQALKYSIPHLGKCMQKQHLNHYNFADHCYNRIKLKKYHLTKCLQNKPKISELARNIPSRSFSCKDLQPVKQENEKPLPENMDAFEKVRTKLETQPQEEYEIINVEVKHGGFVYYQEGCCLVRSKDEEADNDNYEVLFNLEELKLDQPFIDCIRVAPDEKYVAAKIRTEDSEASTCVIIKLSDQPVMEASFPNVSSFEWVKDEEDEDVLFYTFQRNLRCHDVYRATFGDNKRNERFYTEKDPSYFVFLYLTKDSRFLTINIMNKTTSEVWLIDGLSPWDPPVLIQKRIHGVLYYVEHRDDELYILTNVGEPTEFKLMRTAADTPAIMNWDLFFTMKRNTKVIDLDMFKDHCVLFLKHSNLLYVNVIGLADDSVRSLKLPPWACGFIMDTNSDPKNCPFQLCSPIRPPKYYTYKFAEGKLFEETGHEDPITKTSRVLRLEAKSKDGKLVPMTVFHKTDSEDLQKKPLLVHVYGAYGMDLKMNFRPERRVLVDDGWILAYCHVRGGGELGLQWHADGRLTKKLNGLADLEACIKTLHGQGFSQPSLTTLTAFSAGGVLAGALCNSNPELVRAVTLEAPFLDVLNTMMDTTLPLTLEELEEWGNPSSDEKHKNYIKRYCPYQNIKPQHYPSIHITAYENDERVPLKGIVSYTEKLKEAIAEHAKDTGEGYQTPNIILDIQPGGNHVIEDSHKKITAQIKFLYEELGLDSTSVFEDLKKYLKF
ZTA counter: counter-screen for EBNA-1 inhibitors: inhibitors of Epstein-Barr virus ZTA; 320,000 tested, 0.15% active; P03206; inhibition, % at 11 µM; ZTA-DNA binding, fluorescence polarization; in the data active = inhibition above about 33%
PAFAH2 FP inh: inhibitors of human PAFAH2 | inhibition, % at 3.39 µM | recombinant PAFAH2, FP-rhodamine activity probe, fluorescence polarization | Q99487 | 340,000 tested, 0.99% active;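 active = inhibition above the mean over all tested compounds plus 3 SD, cut at about 30% in these data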;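 note: inhibitors block probe labeling of enzyme so polarization drops; 0% = enzyme with DMSO and 100% = wells lacking PAFAH2 protein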
LYPLA1 inh: counter-screen for PME1 inhibitors: inhibitors of human LYPLA1; AID 2174; recombinant LYPLA1, FP-Rh probe fluorescence polarization; inhibition, % at 5.9 µM; 320,000 tested, 0.16% active; O75608;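 active = inhibition above the mean of all tested compounds plus 3 SD, set per campaign, cut at about 14% in these data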;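 note: inhibitors block serine hydrolase probe labeling of LYPLA1 so polarization falls; 0% = enzyme with DMSO and 100% = wells lacking LYPLA1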
EBNA-1 inhibitor: blocks EBNA-1 binding to DNA; EBNA-1 DNA binding, fluorescence polarization; inhibition, % at 14.8 µM; 300,000 tested, 0.34% active; in the data active = inhibition above about 28%
LYPLA2 counter: counter-screen for PME1 inhibitors: inhibitors of human LYPLA2; O95372; 320,000 tested, 0.38% active; recombinant LYPLA2, FP-Rh probe fluorescence polarization; AID 2177; inhibition, % at 5.9 µM;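 active = inhibition above the screen-wide mean plus 3 SD, limit set per campaign, cut at about 26% in these data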;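 note: 0% = LYPLA2 with DMSO and 100% = wells lacking LYPLA2 enzyme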
Target sequence (O95372 whole entry, looked up): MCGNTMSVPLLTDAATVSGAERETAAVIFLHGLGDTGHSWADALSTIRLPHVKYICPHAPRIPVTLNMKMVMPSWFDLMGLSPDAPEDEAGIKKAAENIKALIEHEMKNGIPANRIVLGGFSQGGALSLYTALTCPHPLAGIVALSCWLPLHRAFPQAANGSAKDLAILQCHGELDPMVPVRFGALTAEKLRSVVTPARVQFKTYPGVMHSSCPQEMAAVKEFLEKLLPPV
PAFAH1B3 inh: blocks human PAF acetylhydrolase 1B catalytic subunit 3 | Q15102 | inhibition, % at 3.39 µM | recombinant PAFAH1B3, FP-rhodamine probe, fluorescence polarization | 340,000 tested, 0.28% active;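 active = inhibition above the screen-wide average of all tested compounds plus 3 SD, cut at about 25% in these data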;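 note: 0% = enzyme with DMSO only and 100% = wells lacking PAFAH1B3 protein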
The depositor's hits bear a star; . = not tested or not shown. An excerpt; count on the stated rates, not on these rows.

SMILES	PAD4 FP inh	PREPL inh	ZTA counter	PAFAH2 FP inh	LYPLA1 inh	EBNA-1 inhibitor	LYPLA2 counter	PAFAH1B3 inh
CCS(=O)(=O)c1ccc2c(c1)NC(=O)C(CCCl)O2 (stereo unspecified)	-1.9	2.2	-25.6	4.5	3.6	0.7	1.6	0.6
COCCn1c(N)c(C(=O)NCc2cccs2)c2nc3ccccc3nc21	13.2	21.0	-8.0	6.6	-3.2	-8.3	0.8	20.6
CCOC(=O)C(NC(=O)CCl)(Nc1sc(C)c(CC)c1C#N)C(F)(F)F (stereo unspecified)	0.4	1.3	2.3	5.6	1.6	6.0	8.3	0.1
Cc1nnc(NC(=O)CSc2ccccc2N)s1	0.9	-1.3	-3.5	6.5	0.0	7.8	1.1	0.2
CC(C)Nc1ncnc2c1cnn2-c1ccc(Cl)cc1	-0.1	-0.1	11.4	4.1	-1.5	7.7	-7.6	4.5
CCOC(=O)c1c(CCl)nc2ccccc2c1-c1ccccc1	1.8	-4.7	10.3	4.7	-1.8	2.7	-2.4	6.7
CCc1nc(N2CCCCC2)c2oc3ccccc3c2n1	-4.4	12.0	-14.3	0.5	-2.2	-3.1	0.0	5.4
Cc1cc(NC(=O)CCl)n(-c2nc3ccccc3s2)n1	-2.1	-3.9	16.7	0.0	1.8	11.2	-2.5	4.3
CSc1nc2c(c(=O)[nH]1)C(c1cccc(Cl)c1Cl)CC(=O)N2 (stereo unspecified)	-1.1	-12.2	-21.4	.	6.2	-4.1	-0.4	.
COc1ccc(NC(=O)c2sc(N)nc2-c2ccccc2)cc1	-1.3	7.9	-1.8	5.0	1.8	-14.3	6.7	-2.1
O=C(c1cc(COc2cccc(C(F)(F)F)c2)on1)N1C[C@H]2CC[C@H]1C2	2.2	18.4	-25.3	-5.1	-0.3	4.0	9.9	2.1
CCOC(=O)N1CCC(NC(=O)c2ccc(CNS(=O)(=O)c3ccc(F)cc3)cc2)CC1	1.8	6.0	6.5	2.4	2.0	5.8	8.4	2.8
CCCCc1nnc(NC(=O)C(C)Sc2nc(O)c(Cc3ccccc3)c(=O)[nH]2)s1 (stereo unspecified)	-2.3	1.4	10.3	7.3	-3.3	4.8	2.7	10.6
O=c1ccn(Cc2ccc(F)cc2)c2ccnc(C(F)(F)F)c12	3.7	0.6	2.4	5.8	-2.1	-11.6	-1.5	-1.8
C#CCSc1nnc(CSc2nc3ccccc3s2)n1-c1ccccc1	1.4	-6.2	0.5	-1.4	-1.5	9.5	-6.6	-1.2
O=C(CCl)Nc1ccccc1Sc1ccccc1	-0.1	7.1	-4.8	-4.6	-1.3	-6.4	9.1	3.4
COc1cnc(SCc2ccc(Cl)cc2)nc1Cl	0.4	5.5	-11.1	-1.4	2.5	5.4	13.4	5.7
O=C(Cc1ccc([N+](=O)[O-])cc1)c1c(O)cc(O)cc1O	-6.8	24.9	-7.0	2.3	0.3	0.3	3.7	4.4
N#CC1=C(N)SC(N)=C(C#N)C1C1CC=CCC1 (stereo unspecified)	-3.2	2.7	9.4	4.9	0.1	0.2	2.1	3.1
COc1ccc(Nc2oc(-c3ccccc3)nc2C#N)cc1	-0.7	2.8	7.5	8.8	-0.3	10.0	-5.4	0.9
O=C(CSc1nnc(CNC(=O)c2ccco2)o1)c1ccc(Cl)cc1	1.6	0.2	13.9	1.6	0.8	8.4	-5.0	0.3
N#C/C(=C(\O)CCl)c1nnc2n1CCCCC2	-3.3	7.0	-0.9	-5.3	2.6	-6.3	-4.3	-1.2
Cc1ccc(-n2nc(C)c(NC(=O)CCl)c2C)cc1C	1.2	6.7	-3.2	-5.0	-2.9	-17.1	-7.7	7.4
COc1cc(O)c(CC=C(C)C)c(O)c1C(=O)CCc1ccc(O)cc1	-2.0	0.9	-1.6	-9.7	-22.0	1.8	-27.7	2.9
Cc1c(N=Cc2cc3c(cc2[N+](=O)[O-])OCO3)cccc1[N+](=O)[O-]	-9.5	17.9	4.6	6.2	-4.5	18.0	3.5	-0.7
(cont.)
SMILES	PAD4 FP inh	PREPL inh	ZTA counter	PAFAH2 FP inh	LYPLA1 inh	EBNA-1 inhibitor	LYPLA2 counter	PAFAH1B3 inh
O=C(OCN1C(=O)c2ccccc2C1=O)c1ccco1	-1.7	-1.3	-1.2	20.0	-0.4	-6.3	1.2	7.6
CC(NC(=O)OC(C)(C)C)C(=O)N1CCCC1C(=O)NC(Cc1ccccc1)C(N)=O (stereo unspecified)	-2.0	-12.2	-13.8	2.6	0.4	-13.4	-1.3	-0.7
Cc1ccc(S(=O)(=O)NCC(=O)OCC(=O)Nc2cccc(S(=O)(=O)NC3=NCCCCC3)c2)cc1	-0.3	1.5	14.8	1.7	-2.5	5.2	0.0	9.6
Cc1noc(C)c1CSc1nc2ccccc2c(=O)n1-c1ccccc1	0.0	2.9	2.4	2.7	3.7	1.2	8.6	11.1
O=C1OC(c2ccc(Br)cc2)=N/C1=C\N1CCCCC1	1.3	13.3	-11.9	12.2	0.8	-4.2	6.0	-1.5
CCOC(=O)C1CCN(C(=O)c2ccccc2NS(=O)(=O)c2ccc(F)cc2)CC1	-1.6	3.7	9.9	6.0	0.1	12.9	0.8	10.0
CCOc1ccc2nc(SCCNS(=O)(=O)c3ccccc3)sc2c1	0.0	-16.5	-3.0	-20.7	-8.2	-3.8	-7.2	-0.1
CC(C)Cc1nnc(NC(=O)CSc2nc(O)c(Cc3ccccc3)c(=O)[nH]2)s1	7.5	5.4	6.3	3.8	5.0	-13.0	-2.2	19.7
CCCOC(=O)Oc1ccc2c(=O)c(Oc3cc(C)cc(C)c3)coc2c1	5.1	37.6	20.0	16.7	-0.5	4.9	-1.7	1.5
CCc1nnc(NC(=O)CSc2nnc(CNc3ccc(Cl)cc3)o2)s1	-3.9	18.1	-5.1	-3.9	-0.6	-2.1	-0.2	8.2
CCCCCCCCc1c(O)nc(-n2[nH]c(C)c(CCO)c2=O)[nH]c1=O	9.7	-1.1	6.4	10.3	2.7	7.3	4.4	13.0
CCC(O)(CC)C(=O)NN(C(=O)CCl)c1ccccc1	-2.7	-10.1	-7.7	1.2	-3.8	-7.1	-6.8	-10.5
O=C(/C=C/c1ccccc1)c1ccc2c3c(cccc13)CC2	-4.9	-4.9	-2.3	-2.5	-3.7	1.2	5.4	2.1
Cc1ccc(C(=O)OCC(=O)Nc2cccc(S(=O)(=O)NC3=NCCCCC3)c2)c(C)c1	-2.6	33.9	1.1	25.1	-2.4	5.8	5.0	2.3
COc1cc(OC)c(NS(=O)(=O)c2cc3[nH]c(=O)c(=O)[nH]c3cc2C)cc1Cl	-3.2	-1.9	2.3	-2.0	2.1	-4.7	2.0	7.0
N#Cc1c(NC(=O)CN2CCCCC2)sc2c1CCC2	-9.7	28.7	5.0	0.2	-1.2	-16.4	-3.3	-1.6
COc1ccc(NS(=O)(=O)c2ccc(/C=C/C(=O)O)cc2)cc1S(=O)(=O)N1CCOCC1	1.1	-1.4	4.5	1.9	4.9	5.4	9.2	5.3
CCN(CC)S(=O)(=O)c1cccc(-c2nnc(SCC(=O)c3ccc(Cl)s3)n2C)c1	3.3	13.7	4.6	11.2	-3.7	-4.1	1.5	5.2
CCCCc1nnc(NC(=O)C(C)Sc2nc(C)cc(=O)[nH]2)s1 (stereo unspecified)	6.5	3.1	-9.5	8.5	0.8	0.1	4.1	-4.3
O=C(CCl)NN=C(c1ccccc1)c1ccccc1	-4.4	-11.0	0.9	.	3.5	-6.5	-4.8	.
CC(=O)Nc1ccc(-c2csc(-c3cccnc3)n2)cc1	-0.7	13.2	2.5	-2.0	0.0	7.5	8.2	5.7
S=C(NNC(=S)Nc1ccccc1)Nc1ccccc1	-3.7	8.3	-11.3	5.4	-0.3	8.8	-1.1	13.4
CCC(C)C(NC(=O)OCc1ccccc1)C(=O)OCN1C(=O)c2ccccc2C1=O (stereo unspecified)	3.5	-20.9	2.1	12.9	-1.8	0.5	0.1	3.9
CCOC(=O)c1cnn(-c2ccccc2)c1NC(=O)CCl	-3.4	0.3	-6.7	0.5	2.8	-18.2	-1.8	3.1
COc1ccc(CNc2oc(-c3ccccc3)nc2C#N)cc1	-0.4	12.3	4.1	-0.9	1.9	-0.4	9.9	1.4

Another view of some results above:
molecule | PAD4 FP inh | PREPL inh | ZTA counter | PAFAH2 FP inh | LYPLA1 inh | EBNA-1 inhibitor | LYPLA2 counter | PAFAH1B3 inh
CC(NC(=O)OC(C)(C)C)C(=O)N1CCCC1C(=O)NC(Cc1ccccc1)C(N)=O (stereo unspecified) | -2.0 | -12.2 | -13.8 | 2.6 | 0.4 | -13.4 | -1.3 | -0.7
CCCCCCCCc1c(O)nc(-n2[nH]c(C)c(CCO)c2=O)[nH]c1=O | 9.7 | -1.1 | 6.4 | 10.3 | 2.7 | 7.3 | 4.4 | 13.0
Cc1ccc(S(=O)(=O)NCC(=O)OCC(=O)Nc2cccc(S(=O)(=O)NC3=NCCCCC3)c2)cc1 | -0.3 | 1.5 | 14.8 | 1.7 | -2.5 | 5.2 | 0.0 | 9.6
O=C(CCl)NN=C(c1ccccc1)c1ccccc1 | -4.4 | -11.0 | 0.9 | . | 3.5 | -6.5 | -4.8 | .
O=C1OC(c2ccc(Br)cc2)=N/C1=C\N1CCCCC1 | 1.3 | 13.3 | -11.9 | 12.2 | 0.8 | -4.2 | 6.0 | -1.5

Additional entries
SMILES	PAD4 FP inh	PREPL inh	ZTA counter	PAFAH2 FP inh	LYPLA1 inh	EBNA-1 inhibitor	LYPLA2 counter	PAFAH1B3 inh
Cc1ccc(Nc2nc(N)nc(CSCCO)n2)cc1	-1.3	6.0	0.6	2.3	-0.9	-1.9	8.8	2.9
Cc1cc2[nH]c(=O)c(=O)[nH]c2cc1S(=O)(=O)NCc1ccc(Cl)cc1	-3.5	0.5	5.8	0.2	1.5	2.0	-2.8	4.1
CCC(SCC(=O)OC)C(=O)Nc1nnc(C(C)C)s1 (stereo unspecified)	-1.2	-3.6	-4.1	-6.5	5.2	-5.3	2.0	2.0
O=C(c1cc(COc2cccc(C(F)(F)F)c2)on1)N1CCC(c2ccncc2)CC1	-5.4	-1.4	19.9	1.1	4.8	8.8	20.3	7.1
COc1ccc(Cl)cc1NS(=O)(=O)c1ccc(S(=O)(=O)N2CCCC2)cc1	-2.5	17.3	-12.3	-7.2	-3.8	-2.6	-1.6	1.5
Cc1cccc(CC2CC(=O)N(c3ccccc3)C2=O)c1 (stereo unspecified)	-0.1	3.3	-10.0	4.5	-2.3	-0.7	2.5	2.5
COc1ccc(C(=O)OCN2C(=O)c3ccccc3C2=O)cc1	5.6	3.6	-17.2	36.8*	-2.0	-14.2	11.6	1.3
CC1Cc2ccccc2N1S(=O)(=O)c1cnc(Cl)c(Cl)c1 (stereo unspecified)	-2.5	-8.2	-3.2	5.3	-3.8	-10.3	-0.5	-3.5
CCOC(=O)C1CCCN(S(=O)(=O)c2cnc(Cl)c(Br)c2)C1 (stereo unspecified)	-0.2	14.5	-7.2	-4.2	1.9	5.4	3.1	6.1
CCSc1nnc(NC(=O)CSc2nc3c(c(=O)n2C)SC(C)C3)s1 (stereo unspecified)	-5.8	12.4	-12.0	14.0	1.6	1.9	1.6	11.1
COc1ccccc1CC(=O)Nc1ccc(-c2noc(COc3ccc(Cl)c(C)c3)n2)cc1	-1.3	-3.5	2.5	3.6	-3.9	16.1	-5.7	9.3
COc1ccc(C(=O)NC(=S)Nc2ccc3c4c(cccc24)CC3)cc1OC	0.0	3.4	-4.6	-8.3	1.1	6.7	-10.8	5.6
Cc1ccc(Nc2nc(N)nc(CC#N)n2)cc1	-1.5	32.2	-17.1	-0.7	0.1	0.2	-0.1	-1.7
COC(=O)c1c(CCl)noc1C(=O)NC(C)C	1.4	8.2	-16.3	7.5	0.5	-0.1	0.0	-2.6
COCCNC(=O)c1onc(CCl)c1C(=O)OC	-0.6	-2.5	2.2	2.0	-1.0	-2.2	1.5	4.6
O=C(Nc1cccc(S(=O)(=O)NC2=NCCCCC2)c1)c1cccnc1Cl	0.9	7.5	-4.4	-3.7	1.2	-6.8	2.7	0.8
CC(C)Cn1c(NCCN(C)C)nc2c1c(=O)[nH]c(=O)n2C	-6.6	-0.4	9.9	3.3	3.3	-12.4	-0.1	1.6
CC(C)=CCCC(C)CN1CCC(n2nccc2NC(=O)c2ccccc2)CC1 (stereo unspecified)	2.2	21.8	1.9	2.4	6.0	0.7	15.0	2.1
